Source: PubChem BioAssay (PCMD)
Biofilm kill mix – mixtures killing C. albicans biofilm; inhibition, % at 7.6 µM; C. albicans biofilm persisters + clotrimazole, fluorescence viability; primary screen in compound mixtures of four per well; AID 1242; actives 0.02% (n = 120,000);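 active means inhibition above 30.3% in the primary screen of four-compound pools, then above 30% when the compound was retested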;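 further: compounds exposed to preformed 24 h biofilms for 48 h; the number belongs to the whole pool; some results filed as inactive read as strong as hits; inactives centre near 12; 0% = biofilm with clotrimazole alone and 100% = kill control; retested singly at about 60 µM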
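Test system: C. albicans biofilms. Buffer or medium: RPMI/MOPS medium, pH 7.0. Timing: 48 h compound exposure at 37 °C. Technique: Alamar Blue fluorescence. Evaluation: percent inhibition of biofilm viability.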
Active calls of the source: *. A portion of the library; count on the stated rates, not on these rows.

The first 3 entries, ahead of the listing:
smiles	Biofilm kill mix
CCOC(=O)c1c(C)[nH]c(C(=O)COC(=O)CNC(=O)c2ccc(Cl)cc2)c1C	13
O=C(CSc1ccc(Cl)cc1)N1N=CCC1c1ccccc1 (stereo not drawn)	12
COc1ccccc1Sc1nc(-c2ccccc2)ncc1OC	10

The list itself, from the first entry:
smiles	Biofilm kill mix
CCOC(=O)c1c(C)[nH]c(C(=O)COC(=O)CNC(=O)c2ccc(Cl)cc2)c1C	13
O=C(CSc1ccc(Cl)cc1)N1N=CCC1c1ccccc1 (stereo not drawn)	12
COc1ccccc1Sc1nc(-c2ccccc2)ncc1OC	10
CC1(C)Cc2c(c(N3CCOCC3)nc3sc4c(NCCN5CCOCC5)nnnc4c23)CS1	17
COc1ccc(NC(=O)CC2C(=O)N(C)C(=S)N2CCc2ccc(F)cc2)cc1 (stereo not drawn)	19
COc1ccc(-n2c(=O)cc(N3CCc4ccccc43)[nH]c2=O)cc1	14
COC1=C(Nc2ccc(OC)cc2)C(=O)c2ccccc2C1=O	11
Cc1nnc(SCC(=O)Nc2sc3c(c2C(=O)c2ccccc2)CCCC3)s1	15
O=[N+]([O-])c1cc(Br)c(O)c(C=Nc2ccc(N3CCOCC3)cc2)c1	17
O=C(c1ccco1)N1CCN(S(=O)(=O)c2ccc([N+](=O)[O-])cc2)CC1	13
CCC(C(=O)Nc1ncc(C)s1)c1ccccc1 (stereo not drawn)	11
Cc1ccc(Nc2c(-c3ccc(N4CCOCC4)cc3)nc3ncccn23)c(C)c1	-1
Cc1cccc(C(=O)NCc2nnc(SCC(=O)NC(C)c3ccccc3)n2C)c1 (stereo not drawn)	17
COc1cc(CNCCN(C)C)c(Br)cc1OC1CCCC1	-1
Cc1cc(NC(=O)c2ccc(S(=O)(=O)N3CCc4ccccc43)cc2)no1	10
COc1ccc(/C=C/C(=O)C2C(=O)C=C(C)OC2=O)cc1O (stereo not drawn)	22
Cc1cc(=O)[nH]c(CN2CCC(c3ccccc3)CC2)n1	20
CCn1ncc(Br)c1C(=O)Nc1cccc(F)c1	12
FC(F)(F)c1ccc(C2NCCc3sccc32)cc1 (stereo not drawn)	14
CCOc1ccc(-n2nnnc2SCC(=O)NNC(=O)c2ccco2)cc1	10
Cc1cccc(CN2CCN(Cc3cccc(-n4cccn4)c3)CC2CCO)n1 (stereo not drawn)	9
Cc1ccc(-c2nc3c(c(=O)c4ccccc4n3C)c(=O)n2-c2ccccc2)cc1	14
CC1=C(C(=O)N2CCCC(C(=O)c3cccc4ccccc34)C2)OCCO1 (stereo not drawn)	15
O=C(CCCl)N1CCCC2(CCCCC2)C1	19

Filtered by structure, the compounds so far containing an NH in an aromatic ring
smiles	Biofilm kill mix
CCOC(=O)c1c(C)[nH]c(C(=O)COC(=O)CNC(=O)c2ccc(Cl)cc2)c1C	13
COc1ccc(-n2c(=O)cc(N3CCc4ccccc43)[nH]c2=O)cc1	14
Cc1cc(=O)[nH]c(CN2CCC(c3ccccc3)CC2)n1	20

More records.
smiles	Biofilm kill mix
C=CCN(CC=C)CC(=O)Nc1ccc(S(N)(=O)=O)cc1	8
CCOC(=O)c1c(/N=C/C2C(=O)CC(C)(C)CC2=O)sc2c1CCCC2	-3
CC1CCN(S(=O)(=O)c2ccc(C(=O)NCc3ccco3)cc2)CC1	12
COC(=O)c1sccc1-c1ccc(/C=N/OC(=O)c2cccs2)o1	10
CC#CCN1c2ccccc2[C@]23C[C@@H](C(=O)OC)N(C(C)=O)C2=NC(C(=O)OC)=C(C(=O)OC)[C@H]13	19
Cc1ccc(N=C(NO)c2nonc2N)c(C)c1	1
OC(COCc1ccccc1)CN1CCN(Cc2ccc3c(c2)OCO3)CC1 (stereo not drawn)	8
Cc1ccsc1/C=N/NC(=O)CN1CCN(Cc2ccccc2)CC1	11
COc1cccc(/C=N/N2CCN(c3ccncc3S(=O)(=O)N3CCCCC3)CC2)c1	6
COC(=O)c1scc(S(=O)(=O)c2ccccc2)c1N	8
CCCc1c(C(=O)Nc2ccc(C(F)(F)F)cc2)cnn1-c1ccccc1	18
O=C1C=C(NCc2ccccc2)c2ccccc2C1=O	15
O=C(NCc1nnc(SCc2ccc(F)cc2)n1-c1ccccc1)C12CC3CC(CC(C3)C1)C2	16
CN(Cc1ccccc1)C(=O)CN(c1ccc(F)cc1)S(=O)(=O)c1ccc2c(c1)OCCO2	14
CC/C(=N\NC(=O)C(N)=O)c1ccccc1O	20
C=C(C)CC(NCCc1ccccc1)c1ccco1 (stereo not drawn)	2
Cc1[nH]c(=O)[nH]c(=O)c1S(=O)(=O)N1CCCC(C(=O)NCCC2=CCCCC2)C1 (stereo not drawn)	9
CCOC(=O)c1c(NC(=O)CSc2ncnc3ccccc23)sc(C(C)=O)c1C	18
Cc1ccc(N2C(=O)N(c3ccc(C)cc3)C3CS(=O)(=O)CC32)cc1 (stereo not drawn)	13
COc1ccc(C(CC(=O)N2CCOCC2)c2c(OC)cc(OC)c3c(-c4ccccc4)cc(=O)oc23)cc1 (stereo not drawn)	20
C[C@H](NC(=O)Nc1cccc(C(F)(F)F)c1)C(=O)O	5
O=C(NCc1ccccc1)C(c1ccccc1)N(Cc1ccc2c(c1)OCO2)C(=O)Cc1cccs1 (stereo not drawn)	-3
Cc1ccc(S(=O)(=O)N(C)C)cc1NC(=S)NC12CC3CC(CC(C3)C1)C2	16
Cc1ccc2c(Cl)c(C)c(N3CCCCC3)nc2n1	19
C/C(=N\NC(=O)c1ccc2c(c1)OCCO2)c1ccccc1	13
O=C(CCNC(=O)OCc1ccccc1)NC1CCCCC1	6
Cn1ccc(/C=N/N=C2/NC(=O)CS2)n1	24
Cc1cc(/C=C2/NC(=O)NC2=O)c(C)n1C	22
CCCC(C)C(=O)Nc1cc([N+](=O)[O-])ccc1F (stereo not drawn)	14
C=CCNC(=O)/C(C#N)=C\c1cc(Cl)c(O)c(OCC)c1	14
O=C(c1ccco1)N1CCN(C(=O)c2ccccc2[N+](=O)[O-])CC1	12
CCN(c1ccccc1)S(=O)(=O)c1cc(C(=O)Nc2ccc(Br)cc2)ccc1F	15
Cc1ccc(C)c(NC(=S)Nc2cccc3cnccc23)c1	14
Cc1sc2ncnc(SCc3ccc(C(=O)O)cc3)c2c1C	-5
Cc1ccc(NC(=O)c2cc([N+](=O)[O-])ccc2Cl)c(O)c1	11
COc1ccccc1N1CCN(C(=O)CSc2nc(C)c(C)c(=O)[nH]2)CC1	-5
COCC(=O)OC/C(O)=C(\C#N)c1nc2ccccc2[nH]1	23
Cc1cc(OCC(=O)Nc2ccc(Br)cc2)cc2c1C(=O)CC(C)(C)O2	3
Cn1cc(-c2ccno2)c(C(=O)O)n1	15
Cn1cc(Cl)c(C(=O)NNC(=S)NCc2ccco2)n1	12
CN(CC(=O)N1CCCCC1)S(=O)(=O)c1ccc(Cl)cc1	19
CC(C)CCNC(=S)Nc1ccc([N+](=O)[O-])cc1	23
Cc1nnsc1C(=O)NNc1ccc(C(C)C)cc1	18
N/C(=N\OS(=O)(=O)c1ccc(Cl)cc1)c1ccccn1	10
FC(F)(F)c1cccc(Cn2c3[n+](c4ccc(C(F)(F)F)cc42)CCCCC3)c1	10
Cc1[nH]c2ccccc2c1CCN(Cc1cccs1)C(=S)Nc1ccccc1	-4
CCNC(=S)N/N=C/c1cccc(OCc2c(F)cccc2Cl)c1	13
C=CC[n+]1c(C)csc1Nc1ccc(C)cc1	0
Cc1cc(C)nc(SCCn2c(N3CC(C)OC(C)C3)nc3c2c(=O)n(C)c(=O)n3C)n1 (stereo not drawn)	11
COc1cc(C(=S)NC2CCCCC2)ccc1O	7
CC(=O)c1cc2c(cc1NC(=O)CCC1CCCC1)OCO2	8
O=C(Cn1cnc2cc([N+](=O)[O-])ccc2c1=O)N(Cc1ccccc1)C1CCS(=O)(=O)C1 (stereo not drawn)	0
Cc1nn(-c2cccc(C(F)(F)F)c2)c(=O)c2noc(C)c12	23
COc1ccc(CCN(C)CCC(=O)Nc2ccc(C)cc2)cc1OC	10
O=C(NNS(=O)(=O)c1ccc(F)cc1)C1CC(c2cccnc2)=NO1 (stereo not drawn)	2
O=c1cc(CSc2ccc([N+](=O)[O-])cc2)nc2sccn12	2
CN(CC1CCCO1)S(=O)(=O)c1ccc(C(=O)NCc2ccccc2)cc1 (stereo not drawn)	15
COCCCNC(=S)N1CCCN(c2nc3c(C)c(C)ccc3cc2C#N)CC1	14
Cc1cc(NC(=O)CN2CCCCC2C)nc2c1c(=O)oc1ccccc12 (stereo not drawn)	14
O=C(O)Cc1ccc2sc(-c3ccccc3)nc2c1	6

Continuation:
smiles	Biofilm kill mix
Cc1cc2cc(CN(Cc3cccs3)C(=S)NCc3ccco3)c(=O)[nH]c2cc1C	12
COc1ccc(Cc2noc(CN3CCCC(OCc4ccccn4)C3)n2)cc1OC (stereo not drawn)	17
Nc1nnc(-c2cn(-c3ccccc3)nc2-c2ccc(Cl)cc2)o1	20
CCN(CC)S(=O)(=O)c1ccc2c(c1)N(CC(=O)Nc1cccnc1Cl)C(=O)CO2	16
Cc1cc(SC#N)cc(C)c1NC(=O)CCl	22
Fc1cc(Br)ccc1NC(=S)Nc1cccnc1	5
CC(=O)N/C(=C\c1ccccc1Cl)C(=O)O	7
Fc1ccc(C(CCNCc2cccs2)c2ccco2)cc1 (stereo not drawn)	21
Cc1ccc(CCNC(=O)CN(C)S(=O)(=O)c2cnc[nH]2)cc1	4
CCC1CCCCN1Cc1ccc(N)cc1 (stereo not drawn)	16
Cc1cc(C)c(S(=O)(=O)N2CCCOC2CNC(=O)C(=O)NCc2ccncc2)c(C)c1 (stereo not drawn)	9
Cc1cccc(Nc2c(-c3ccc(N4CCOCC4)cc3)nc3ncccn23)c1	11
COc1ccccc1NC(=O)N1CCN(C(=O)Nc2ccccc2OC)CC1	9
CCOc1ccc(NC(=O)CN2CCN(CC(=O)Nc3ccc(OC)cc3)CC2)cc1	8
O=C(Nc1cc(N2CCCCC2)ncn1)c1ccc(F)cc1	11
O=C(COC(=O)CCCNC(=O)c1ccc(Cl)cc1)Nc1cc(Cl)c(Cl)cc1Cl	1
CC/C(=N/NC(=O)c1ccc(Br)o1)c1ccc(Cl)cc1	23
Cc1ccc(NC(=O)c2ncc(Cl)c(Cl)c2Cl)cc1C	4
CCOC(=O)c1ccc(N=c2ssnc2Cl)cc1	9
CC(C)Nc1ccc(C(CC(N)=O)NC(=O)Cc2cccc3ccccc23)cc1[N+](=O)[O-] (stereo not drawn)	16
Cc1cccnc1-n1c(CCN2C(=O)c3ccccc3C2=O)nc2ccccc2c1=O	7
CCOC(=O)CC(NC(=O)C(CC)c1ccccc1)c1ccccc1Cl (stereo not drawn)	11
Cc1ccc(-c2nc(CN(C)C3CCOCC3)c(C)o2)s1	19
CCOC(=O)CNC(=O)c1cc(OC)cc(OC)c1	20
COC(=O)c1ccc(C)c(NC(=O)Cc2ccc([N+](=O)[O-])cc2)c1	26
O=C(CSc1nc(O)cc(=O)n1-c1ccccc1)c1ccc(Br)cc1	2
O=C1C=C(NCCN2CCOCC2)C(=O)c2cnccc21	17
CC(=O)n1cc([C@@H]2C=C(C(=O)O)O[C@H](OCc3ccc(CO)cc3)C2)c2ccccc21	6
C=CCOC(=O)c1ccc(-n2cnc(C)n2)nc1	0
CCSc1nc2sc3c(c2c(=O)[nH]1)CCCC3	11
Cc1cc(C(=O)CSc2nc3ccccc3c(=O)n2C)c(C)n1CC1CCCO1 (stereo not drawn)	14
CCCCC(CC)C(=O)NCc1ccc(F)cc1 (stereo not drawn)	10
CC(=O)N(/C=C1\SC(=S)N(c2ccccc2)C1=O)c1ccccc1	23
COc1cc2c(c(OC)c1O)C(=O)CO2	10
CC(=O)Nc1ccc(NC(=O)[C@@H]2CCCN2S(=O)(=O)c2ccc3c(c2)OCCO3)cc1	6
COCCn1nnnc1C(c1cccc(C(F)(F)F)c1)N1CCOCC1 (stereo not drawn)	3
CCOC(=O)c1ccccc1NC(=S)N1CCC(N2CCCCC2)CC1	12
CCn1cnc2c(oc3ccccc32)c1=O	10
CCN(CC)CCN1C(=O)c2oc3ccc(F)cc3c(=O)c2C1c1ccncc1 (stereo not drawn)	24
Clc1ccc(-c2noc(COc3ccccc3)n2)cc1	13
CCC(=O)c1ccc(OC)c(OC)c1O	21
COc1cc(C)c(NC(=O)C(=S)N2CCCC2)cc1C	15
O=C(Nc1cc(S(=O)(=O)N2CCOCC2)ccc1N1CCCC1)c1cnccn1	6
Cc1ccc(NC(=O)CN2C(=S)NC(C)(C)CC2C)cc1Cl (stereo not drawn)	20
CCCCNC(=O)CCn1c(=O)c2ccccc2n(Cc2ccc(F)cc2)c1=O	9
Cc1cc(C(=O)N/N=C/c2cc(Br)cc([N+](=O)[O-])c2O)c2ccccc2n1	9
N#Cc1c(N)n(-c2ccc(N)cc2)c2nc3ccccc3nc12	17
Cc1cc([N+](=O)[O-])nn1Cc1ccc(C(=O)N/N=C/c2ccc(N(C)C)cc2)cc1	10
COc1ccc(CNC(=O)c2c(C)cc(=O)oc2C)cc1	11
CCOc1cc2c(cc1/C=C/C(=O)O)OC(C)C2 (stereo not drawn)	13
Cc1ccc(S(=O)(=O)N2CCC(=O)N(CCOCc3cccc(C)c3)CC2)cc1	11
